# Calb biofilm kill = mixture kills Candida albicans biofilm cells | C. albicans biofilm persisters + clotrimazole, fluorescence viability; primary screen in compound mixtures of four per well | inhibition, % at 7.6 µM | 120,000 compounds, 0.02% hits | AID 1242;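 active means inhibition above 30.3% in the primary screen of four-compound pools, then above 30% when the compound was retested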;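 further: compounds exposed to preformed 24 h biofilms for 48 h; the number belongs to the whole pool; some results filed as inactive read as strong as hits; inactives centre near 12; 0% = biofilm with clotrimazole alone and 100% = kill control; retested singly at about 60 µM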
#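 Assay system: C. albicans biofilms / Medium: RPMI/MOPS medium, pH 7.0 / Schedule: biofilm formation 24 h, compound exposure 48 h, 37 °C / Measured by: Alamar Blue fluorescence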
# Numbers without * were called inactive.
compound	Calb biofilm kill
COc1cc(C(C[N+](=O)[O-])c2c(N)n(C)c(=O)n(C)c2=O)ccc1O (stereo unspecified)	6.7
C/C(=N\NS(=O)(=O)c1cccc([N+](=O)[O-])c1)c1cccnc1	9.8
COc1ccc(CCCc2nc3ccccc3[nH]2)cc1	21.9
CCOC(=O)c1csc(COc2ccc(OC)cc2)n1	17.6
CCOC(=O)C(NCCOC)(NC(C)=O)C(F)(F)F (stereo unspecified)	24.3
CCOC(=O)Cn1cc(/C=C(/C#N)C(=O)NC(C)C)c2ccccc21	24.1
COc1ccccc1CC(NC(C)=O)C(=O)NC1CCN(C(=O)Nc2ccccc2Cl)CC1 (stereo unspecified)	2.1
COc1ccc(C(=O)N/C(=C/c2cccs2)c2nc3ccccc3[nH]2)cc1OC	12.7
O=C1CN(C(=O)c2cc3ccccc3oc2=O)C(c2ccccc2)c2cc(F)ccc2N1 (stereo unspecified)	17.7
O=C(COC(=O)c1ccccc1Br)NCCC1=CCCCC1	9.0
COC(=O)Cc1c(O)ccn(CCc2c[nH]c3ccccc23)c1=O	12.0
O=C(c1ccccc1)c1c[nH]c2cc3c(cc2c1=O)OCO3	10.5
CC(=O)c1nc(N2C(=O)CC(Cc3ccc(C)cc3)C2=O)sc1C (stereo unspecified)	15.7
O=S1(=O)CCN(Cc2ccc(F)cc2)CC1	9.8
CCOc1ccc(S(=O)(=O)N(C)c2ccc(OCC(=O)NCc3ccc(C(=O)OC)cc3)cc2)cc1	8.5
CSc1cccc(NC(=O)CCCOc2ccc(Cl)cc2Cl)c1	10.8
COc1ccc(S(=O)(=O)N2CC(O)CC2C(=O)Nc2cccnc2)cc1 (stereo unspecified)	10.1
CCS(=O)(=O)N1CCC(C(=O)O)CC1	10.9
S=C(Nc1ccccc1Cl)N(Cc1cccnc1)Cc1ccco1	17.4
Cc1cc([N+](=O)[O-])ccc1-c1ccc(/C=N/NC(=O)Cc2ccccc2)o1	11.8
CCOC(=O)N1CCN(C(=O)c2cccn3c(=O)c4cc(Br)ccc4nc23)CC1	11.7
Cc1cccc(CSc2nnc(CCCCCNC(=O)OC(C)(C)C)o2)c1	20.6
O=C1c2ccc3c4c(ccc(c24)C(=O)N1CCCCO)C(=O)N(CCCCO)C3=O	13.9
CC(C)(C)C1CCC(=NOC(=O)c2ccc(F)cc2)CC1 (stereo unspecified)	12.3
O=Cc1cn(CCC(=O)O)nc1-c1cccc(Cl)c1	14.8
CCN1CC(CN(C)Cc2nc(-c3ccc(OC)c4ccccc34)oc2C)CC1=O (stereo unspecified)	24.4
COc1ccc(N2CCN(C(=O)c3ccc(N(C)S(=O)(=O)c4ccc(OC)cc4)cc3)CC2)cc1	3.0
Cc1nc(CSc2nnc(N)s2)cs1	3.2
NC(=O)CSc1nnc2ccc(-c3ccc(F)cc3)nn12	6.6
Cc1nnc2sc(SCc3ccc(Br)cc3)nn2c1=O	18.7
COc1ccc(C2(C(=O)c3ccccc3)C(=O)c3ccccc3C2=O)cc1	7.5
Cc1ccc(OC(=O)C23CC4CC(CC(C4)C2)C3)c(C)n1	11.3
CCCCNC(=S)NC1CCCC1	3.8
O=C(Cn1cnc(Cl)c1Cl)c1ccc(F)cc1	10.8
O=C(Nc1ccccc1)c1sc(Cl)nc1-c1ccccc1	17.2
O=C(c1ccc(F)cc1)C(C(=O)N1CCCCC1)n1ccccc1=O (stereo unspecified)	24.6
CCOC(=O)CNC(=S)N(CCCN1CCCCC1)Cc1cccs1	0.0
O=S(=O)(NCC(O)c1ccccc1)c1ccc(-c2ccccn2)s1 (stereo unspecified)	4.7
CC(NC(=O)CCSCCC(=O)NC(C)c1ccccc1)c1ccccc1 (stereo unspecified)	-14.4
OCCCC1CCCCN1Cc1nc(Cc2ccccc2Cl)no1 (stereo unspecified)	4.9
Clc1ccc(/C=N/N2CCN(Cc3ccccc3Cl)CC2)cc1	12.6
O=C(NCc1n[nH]c(=S)n1-c1cccc(C(F)(F)F)c1)c1ccc(S(=O)(=O)N2CCCC2)cc1	10.9
Cc1ccc(NCc2n[nH]c(=S)n2-c2cccc(Cl)c2)cc1	11.4
CCCOc1ccc(NC(=O)CC2Nc3ccccc3NC2=O)cc1 (stereo unspecified)	2.0
O=c1cc(O)nc(-c2ccc(Cl)cc2)s1	10.2
CCOC(=O)n1c(=O)n(Cc2ccccc2C)c2ccccc21	5.5
O=C(Cn1c2ccccc2c(=O)c2ccccc21)Nc1ccccc1F	21.9
CC(O)CNCc1ccc(Cl)cc1Cl (stereo unspecified)	7.2
O=C(c1ccccc1)c1ccc(OC(=O)N2CCCC2)cc1	14.3
O=C(NCc1ccccc1)C1=C[C@@H](c2coc3ccccc3c2=O)C[C@@H](OCCCCO)O1	17.5
COC(=O)c1cccc(NC(=O)c2cccnc2C(=O)O)c1C	22.4
Cc1ccc(-n2c(C)cc(/C=C3/C(=N)N4C(c5ccccc5)=CSC4=NC3=O)c2C)cc1	22.4
COc1ccc(S(=O)(=O)NNC(=O)c2cccs2)cc1	-9.6
CC(=O)NNc1nc(-c2ccc(C)cc2)cs1	7.2
CCOc1ccc(C(=O)NC(=S)Nc2ncccc2C)cc1[N+](=O)[O-]	14.2
COc1cc(NC(=O)CCCc2c[nH]c3ccccc23)cc(OC)c1	15.7
COc1ccc(CCn2c(-c3ccccc3)nc3c(c(=O)c4ccccc4n3C)c2=O)cc1	17.8
C=CCn1c(SCC(=O)N2CCc3ccccc3C2)nnc1-c1ccncc1	2.9
COc1cccc(OCC(Cn2cnc3ccccc32)OC(C)=O)c1 (stereo unspecified)	14.7
C[N+](C)(C)CCCCCCC(=O)/C=N/O	7.7

# (cont.)
compound	Calb biofilm kill
O=C(O)c1cccc(-c2ccc(/C=N/n3cnc4sc5c(c4c3=O)CCCC5)o2)c1	14.6
CCOC(=O)N/N=C\c1ccc(-c2cc(Cl)ccc2Cl)o1	13.6
CCCCc1nc2sc3c(=O)n(N)cnc3c2c2c1CCCC2	15.1
CC(C)(C)C(=O)N1CCN(c2nc3ccccc3o2)CC1	-6.4
NC(=S)Nc1cc(Cl)cc(Cl)c1	10.6
COC(=O)c1ccc(C(=O)OC)c(NC(=O)CN(C)Cc2ccccc2)c1	18.2
N#C/C(=C\c1coc2ccccc2c1=O)C(N)=S	14.9
CCn1c(SCC(=O)N/N=C(\C)c2ccncc2)nnc1-c1ccccc1	5.5
Cc1ccc(C(C)C)cc1OCCCCN1CCCC1	11.0
C/C=C/c1ccc(OCC(=O)Nc2ccc(OC)c(OC)c2)c(OC)c1	-3.5
Nc1cc(=O)[nH]c(SCC(=O)N2CCCc3ccccc32)n1	11.9
Cc1c(NC(=S)NC(=O)c2ccc(-c3ccc(Cl)cc3)o2)cccc1C(=O)O	26.0
O=C(NCCO)/C(=C\c1ccc2c(c1)OCO2)NC(=O)c1ccc(Br)cc1	10.1
Cc1cc(NC(=O)/C(C#N)=C/c2ccc(-c3ccc(SC(F)F)cc3)o2)n(-c2ccccc2)n1	14.8
Cn1ccnc1C1CCCCN1Cc1nc(-c2ccc(Cl)cc2)no1 (stereo unspecified)	-5.4
O=C(COC(=O)C1(c2ccc(F)cc2)CCCC1)NCc1ccc2c(c1)OCO2	6.6
CCOC(=O)c1cc2c(=O)n3ccccc3nc2n(Cc2ccco2)c1=NC(=O)c1ccccc1OC	10.9
COc1cc2c(c(OC)c1OC)-c1c(cc3c(c1OC)OCO3)C1OC2[C@@H](C)[C@H]1C (stereo partly specified)	13.0
CC(=O)Nc1ccc(C(=O)CSc2nccc(=O)[nH]2)cc1	7.1
N#C/C(=C\c1ccc(-c2ccccc2)cc1)c1nc(-c2ccco2)cs1	11.6
COc1ccccc1-c1nc2cc3ccccc3cc2nc1-c1ccccc1OC	17.5
COc1ccc(N(CCC#N)S(=O)(=O)c2cccc3nsnc23)cc1	13.9
CC1=Nc2cc(C(=O)NCCCOC(C)C)ccc2Sc2ccccc21	11.8
CCn1c(SCC(=O)Nc2ccc(Cl)cc2)nc2nc3c(cc2c1=O)CCCC3	4.8
Nc1ccc(C2=Nc3cccc4cccc(c34)N2)cc1	10.5
O=C(COc1ccc(Br)cc1Br)NC(=S)Nc1cccc(CO)c1	2.0
COc1ccc(CNC(=O)c2cccc(-c3ccc(C)c4ccccc34)n2)cc1	12.1
CCOC(=O)CSc1n[nH]c(=S)s1	3.4
Cc1[nH]n(-c2ccccc2)c(=O)c1C(C[N+](=O)[O-])c1ccc(F)cc1 (stereo unspecified)	18.8
CCOc1cccc(-c2nnc3sc(-c4cc(OC)c(OC)c(OC)c4)nn23)c1	-8.9
CN(CC(=O)Nc1ccc(N2CCOCC2)cc1)CC(=O)Nc1cccc(C#N)c1	3.9
Nc1ccc(-c2ccc(C(=O)O)s2)cn1	-1.0
Cc1ccc(-n2[nH]c(C)c(C=Nc3ccc(S(=O)(=O)Nc4nccs4)cc3)c2=O)c(C)c1	2.0
Cc1cc(C)c(S(=O)(=O)Nc2ccc(O)c(Sc3ncn[nH]3)c2)c(C)c1	6.8
O=C(Nc1ccc(S(=O)(=O)NC2=NCCCCC2)cc1)C1COc2ccccc2O1 (stereo unspecified)	21.0
CCCC1=[N+](CC(=O)c2ccccc2)CCn2cccc21	13.9
Cc1ccc(S(=O)(=O)NN2C(=O)c3ccccc3NC2(C)C)cc1	14.9
O=C(c1ccccc1)c1c[nH]c(C(=O)C(Cl)(Cl)Cl)c1	-0.1
CC(=O)c1c(C)[nH]c(C(=O)OCC(=O)NCCC(C)C)c1C	-2.7
O=C(c1cccs1)N1C(=O)c2cccc3cccc1c23	20.9
CC(=O)NCCc1nc2ccccc2n1Cc1cccc(C)c1	11.6
Cc1ccc(NC(=S)NC(CO)C(O)c2ccc([N+](=O)[O-])cc2)cc1 (stereo unspecified)	10.9
CC(C)c1ccc(/C=N/NC(=O)c2cccc(S(=O)(=O)N3CCOCC3)c2)cc1	2.0
O=C(NCC1CCCO1)C1CCCN1C(=O)Nc1ccc(Cl)c(Cl)c1 (stereo unspecified)	13.8
O=C(CN1CCC(NC(=O)c2ccccc2F)CC1)Nc1ccc2c(c1)OCO2	25.2
COc1ccccc1N1CCN(C(=O)CCN2C(=O)c3cccc4cccc(c34)C2=O)CC1	21.9
COC(=O)[C@@H]1CC[C@H](C)[C@@H](c2ccc(C)cc2)N1C(=O)c1ccc(/C=N/O[C@H](C)c2cn([C@@H]3COC[C@H]3O)nn2)cc1	8.7
COC(C[C@@H]1O[C@@H]1[C@@H](O)COCc1ccccc1)OC	14.0
O=C1/C(=C/C=C/c2ccccc2)Oc2c1ccc(O)c2CN1CCN(CCO)CC1	15.2
Cc1ccn2cc(-c3ccc(NS(=O)(=O)c4ccccc4)cc3)nc2c1	7.0
C/C(=N\NC(=S)NC1CCCCC1)c1ccc(C)o1	4.5
COc1ccccc1N/C=C1/Sc2cc(Cl)ccc2NC1=O	4.2
C/C(Cc1ccccc1)=N\NC(=O)CNC(=O)c1ccccc1Br	13.1
CCn1ncc(/C=N\NC(=O)COc2ccccc2)c1C	11.5
O=c1oc2ccccc2cc1-c1cn(-c2ccccc2)c(=S)[nH]1	5.8
O=C(Nc1ccccc1Cl)C1(c2ccccc2)CC1(Cl)Cl (stereo unspecified)	16.4
Cn1c(=O)n(/N=C/c2ccccc2)c2ccccc21	18.7
COc1ccc(OCC(=O)N/N=C/c2ccc(N(C)C)cc2)cc1	12.5
COc1ccc(CN(CCC(c2ccccc2)c2ccc(OC(C)C)cc2)C(=O)CCl)cc1OC (stereo unspecified)	22.7
C[C@H](NC(N)=O)C(=O)OCC(=O)Nc1ccc(OC(F)F)cc1	9.2

# (continued)
compound	Calb biofilm kill
O=C(NCCCN1CCCC1=O)c1ccc2c(=O)n(-c3ccc(F)cc3)c(=S)[nH]c2c1	12.4
COc1ccc(CNC(=O)C2CCC(CNc3nc(=S)[nH]c4ccccc34)CC2)cc1 (stereo unspecified)	6.1
C=CCOC(=O)C1=C[C@@H](C2CCCCC2)C[C@@H](OCc2ccc(CO)cc2)O1	9.9
Cc1nn(CC(=O)c2ccc(Cl)cc2Cl)c(C)[n+]1N	15.1
CCOC(=O)c1c(NC(=O)c2cc3n(n2)C(C(F)(F)F)CC(c2cccs2)N3)sc(C)c1C (stereo unspecified)	12.0
NS(=O)(=O)c1cc(C(=O)N=Nc2c(O)[nH]c3ccccc23)ccc1Cl	4.7
CN1CCN(C(=O)CCc2nc(-c3ccc(Cl)cc3)no2)CC1	3.3
Cn1c(=O)c2ncn(CC(=O)N=Nc3c(O)[nH]c4ccccc34)c2n(C)c1=O	-4.3
COc1cccc(NC(=O)CN(C)CC(=O)NC(C)c2ccccc2)c1 (stereo unspecified)	18.7
CC(C)n1c(=O)[nH][nH]c1=S	28.6
COc1ccccc1NC(CC(=O)c1ccccc1)C(=O)OCC(=O)c1ccc(Br)cc1 (stereo unspecified)	-4.8
COc1cc(/C=c2/sc3nc(-c4ccccc4)c(-c4ccccc4)n3c2=O)cc(OC)c1OC	5.4
CSc1ccccc1NC(=O)CN1CCCCC1	11.5
c1ccc(-c2nn[nH]n2)nc1	15.7
O=C(O)/C=C\C(=O)Nc1ccc(OCc2ccccc2)cc1	5.1
CSc1nccc(Oc2cncc(Cl)c2)n1	15.7

# In a second layout: 2 of the compounds above
COc1cccc(NC(=O)CN(C)CC(=O)NC(C)c2ccccc2)c1 (stereo unspecified)
  Calb biofilm kill = 18.7

C=CCOC(=O)C1=C[C@@H](C2CCCCC2)C[C@@H](OCc2ccc(CO)cc2)O1
  Calb biofilm kill = 9.9

# This is a subset; rates above refer to the full screens.
